Arbovirus anti: antivirals against arbovirus infection, primary screen, cell-based, full library, 10K replicate subset. AID 1251, 2008. inhibition, % at 10 µM. arbovirus infection cell-based antiviral screen. actives 0.37% (n = 200,000);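 active = inhibition from about 30%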;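 also: bluetongue infection of BSR cells; cell survival read as ATP light after 72 h; 0% = infected wells without compound and 100% = uninfected wells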
Mtb growth: M. tuberculosis H37Rv growth inhibitors, H37Rv strain (AID 1626) | actives 0.95% (n = 220,000) | inhibition, % at 10 µM; hits with a dose series show IC50 in µM | M. tuberculosis H37Rv growth inhibition; higher % means a stronger effect;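 active = confirmed in a dose series; inconclusive = inhibition above 80% but not taken into the dose series; inactive = below 80% or under 30% at every dose of the series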;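 also: bacteria incubated seven days before Alamar blue readout; 0% = bacteria only wells and 100% = bacteria with antibiotic wells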
RecA splice inh: Mtb RecA intein splicing inhibitors, primary screen, biochemical, fluorescence, HTS; Protein RecA (Mycobacterium tuberculosis (strain ATCC 25618 / H37Rv)), P9WHJ3; cell-free RecA intein splicing; inhibition, %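 (about 9 µM by stock and volumes)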; actives 0.75% (n = 290,000); AID 2221, 2009; in the data active = inhibition above about 30%; inconclusive = no clear call, values can overlap the other calls;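 also: 0% = vehicle wells and 100% = reference inhibitor control wells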
Target sequence (P9WHJ3 whole entry, looked up, canonical isoform): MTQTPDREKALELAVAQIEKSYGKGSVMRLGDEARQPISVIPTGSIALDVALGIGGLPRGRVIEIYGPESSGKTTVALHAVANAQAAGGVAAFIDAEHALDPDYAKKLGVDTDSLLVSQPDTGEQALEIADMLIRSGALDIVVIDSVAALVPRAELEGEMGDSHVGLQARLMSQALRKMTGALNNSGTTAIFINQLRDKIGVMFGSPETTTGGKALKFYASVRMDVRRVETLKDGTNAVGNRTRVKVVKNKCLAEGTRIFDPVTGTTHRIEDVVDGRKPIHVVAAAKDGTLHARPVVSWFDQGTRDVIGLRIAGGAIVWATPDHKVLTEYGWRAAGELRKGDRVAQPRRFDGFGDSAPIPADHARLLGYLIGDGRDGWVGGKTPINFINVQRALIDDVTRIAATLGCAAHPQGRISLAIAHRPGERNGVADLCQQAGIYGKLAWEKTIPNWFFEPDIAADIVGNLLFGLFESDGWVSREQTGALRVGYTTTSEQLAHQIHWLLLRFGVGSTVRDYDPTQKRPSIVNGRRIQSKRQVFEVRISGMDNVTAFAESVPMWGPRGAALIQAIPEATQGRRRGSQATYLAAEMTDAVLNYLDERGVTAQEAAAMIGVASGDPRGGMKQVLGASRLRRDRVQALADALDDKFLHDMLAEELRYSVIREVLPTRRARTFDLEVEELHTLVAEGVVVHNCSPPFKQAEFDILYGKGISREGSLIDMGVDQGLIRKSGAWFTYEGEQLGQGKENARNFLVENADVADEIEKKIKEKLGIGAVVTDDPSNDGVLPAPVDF
Mtb betalactam: beta-lactam sensitization of Mtb H37Rv, H37Rv. M. tuberculosis H37Rv growth with meropenem, percent inhibition; hits of this screen are not shown here. inhibition, % at 25 µM. actives 0.27% (n = 330,000). AID 434955, 2010;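 active = about 74% or more and at least 40 points above the plate without the antibiotic, then above 30% in a dose series; inconclusive = first-round hits that could not be retested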;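 also: growth measured after seven days incubation then overnight dye step; 0% = bacteria only wells and 100% = bacteria with antibiotic; twin plates without the antibiotic show which effects depend on it; some results filed as inactive read as strong as hits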
YopH PTP inh: YopH tyrosine phosphatase inhibitors, primary screen, biochemical, fluorescence Ex485/Em525. AID 898, 2007. actives 0.16% (n = 140,000). inhibition, %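 (about 10 µM by stock and volumes)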;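 active = inhibition of 50% or more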;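 also: controls were vehicle for no effect and minimum signal wells for full effect; inactives centre near -20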
Arbovirus anti repeat: recorded beside Arbovirus anti, whose call it bears; inhibition, %; measured here: 10K subset replicate screen; many hits read low in the repeat;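 first of two repeat runs on a subset; 0% = infected and 100% = uninfected wells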
* hit, by the source's call; ? = inconclusive; nt = no result given.

SMILES | Arbovirus anti | Mtb growth | RecA splice inh | Mtb betalactam | YopH PTP inh | others
COc1ccc(CCC(C)N2CCC(Oc3ccc(C(=O)N4CCCC4)cc3)CC2)cc1 (stereo not drawn) | nt | nt | 5.3 | -5 | nt
CCC(C)NC(=O)c1cc(OC)c(OC)c(OC)c1 (stereo not drawn) | -1 | 4% | 0.3 | 2 | -19
O=C(CCCN1CCC(c2ccccc2)C1)c1ccc2c(c1)OCCO2 (stereo not drawn) | -10 | 2% | -1.3 | 4 | -34
Cc1ccc(-c2noc(CCC(=O)NCCN3CCN(Cc4ccccc4)CC3)n2)cc1 | 7 | 1% | 0.7 | 1 | -24
CC(C)CC(=O)Nc1c2c(nn1-c1ccc(F)cc1)CS(=O)C2 (stereo not drawn) | nt | nt | -3.5 | 0 | nt
O=C(c1ccc(COCC(F)(F)F)o1)N1CCCCCC1 | -3 | 0% | 1.3 | 2 | -45
COC(=O)[C@@H]1C[C@H]2CC[C@H](O)C[C@H]2N1Cc1ccc(-c2ccccc2)cc1 | nt | -11% | 1.5 | -7 | nt
O=C(CSc1nc2ccccc2c(=O)n1-c1ccc(Cl)cc1)c1ccco1 | -11 | -7% | 2.2 | 11 | -34
Cc1cc(C)c2c(N)c(C(=O)c3ccccc3Cl)sc2n1 | nt | -3% | -2.8 | -3 | nt
CN1CCN(C(=S)C(=O)Nc2ccccc2)CC1 | -5 | 0% | -2.1 | -7 | nt
Cc1ccc2cc3cc(C(=O)N4CCC5(CC4)OCCO5)oc3nc2c1 | -3 | -1% | 1.2 | -6 | -42
CCOC(=O)c1nnc(-c2ccc(C)cc2)nc1Oc1ccccc1Cl | 4 | 3% | 16 | 36 | -39

Next section; it opens with the 5 that closed the last part.
SMILES | Arbovirus anti | Mtb growth | RecA splice inh | Mtb betalactam | YopH PTP inh | others
O=C(CSc1nc2ccccc2c(=O)n1-c1ccc(Cl)cc1)c1ccco1 | -11 | -7% | 2.2 | 11 | -34
Cc1cc(C)c2c(N)c(C(=O)c3ccccc3Cl)sc2n1 | nt | -3% | -2.8 | -3 | nt
CN1CCN(C(=S)C(=O)Nc2ccccc2)CC1 | -5 | 0% | -2.1 | -7 | nt
Cc1ccc2cc3cc(C(=O)N4CCC5(CC4)OCCO5)oc3nc2c1 | -3 | -1% | 1.2 | -6 | -42
CCOC(=O)c1nnc(-c2ccc(C)cc2)nc1Oc1ccccc1Cl | 4 | 3% | 16 | 36 | -39
CCOc1ccc(NC(=O)Cn2nnc(C(=O)NCc3ccccc3OC)c2N)cc1 | -4 | nt | 0.3 | -7 | -47
CCc1cc(Cn2nc(-c3ccccc3)cc2C(=O)NCc2cccc(C(F)(F)F)c2)on1 | nt | nt | -0.5 | 0 | nt
CCOC(=O)c1c(NC(=O)C(=O)N/N=C/c2ccccc2O)sc2c1CCCCC2 | -31 | -4% | 0.7 | ? | -30
Cc1noc(NS(=O)(=O)c2ccc(N/C=C\C(=O)c3ccc(F)cc3)cc2)c1C | 0 | -2% | -3.9 | 1 | nt
C=CCn1c(SCC)nc(O)cc1=O | -6 | 1% | -3.6 | 16 | -40
Cc1cc(C=C2C(=O)NC(=O)NC2=O)c(C)n1-c1ccncc1 | 2 | nt | 0.1 | 2 | nt
Cc1cc(=O)c2c(O)c(O)ccc2o1 | 4 | -7% | -8.1 | -7 | -37
CCCn1c2ccccc2c2cnn(CC(=O)NCCN(C)C)c(=O)c21 | nt | nt | -3.0 | -4 | nt
Cc1ccc(CNC(=O)c2ccc(N3CCC4(CC3)CC(c3ccccc3)=NO4)c(NC(=O)c3ccc(Cl)c([N+](=O)[O-])c3)c2)cc1 | nt | nt | -1.7 | -4 | nt
COc1ccc(C(CNC(=O)c2ccc3c(c2)C(=O)N(CCC(C)C)C3=O)N2CCOCC2)cc1 (stereo not drawn) | -3 | -3% | 2.6 | -4 | -36
CC1CCc2c(sc(NC(=O)CCC(=O)O)c2C(=O)NC2CC2)C1 (stereo not drawn) | nt | nt | -0.5 | -2 | nt
O=C(Nc1nc(-c2ccccc2)nc2ccccc12)c1ccc(F)cc1 | -7 | 5% | 0.4 | 35 | nt

Gathered by group: the compounds so far with a CF3 group (two)
SMILES | Arbovirus anti | Mtb growth | RecA splice inh | Mtb betalactam | YopH PTP inh | others
O=C(c1ccc(COCC(F)(F)F)o1)N1CCCCCC1 | -3 | 0% | 1.3 | 2 | -45
CCc1cc(Cn2nc(-c3ccccc3)cc2C(=O)NCc2cccc(C(F)(F)F)c2)on1 | nt | nt | -0.5 | 0 | nt

Further entries follow.
SMILES | Arbovirus anti | Mtb growth | RecA splice inh | Mtb betalactam | YopH PTP inh | others
C[C@@H]1CC=C[C@H]2[C@H]1C(=O)N(Cc1ccccc1)[C@H]2c1ccc(F)c(/C=C/c2ccccc2)c1 | nt | 17% | 2.6 | -1 | nt
O=C(Nc1ccccc1C(=O)O)c1ccc2c(c1)C(=O)N(c1cccc([N+](=O)[O-])c1)C2=O | nt | nt | 1.3 | -9 | nt
O=C(NCc1ccccn1)C1CCN(S(=O)(=O)c2ccccc2)CC1 | -2 | -2% | -1.8 | 0 | -50
O=C(CC1SC(=Nc2ccc(OC(F)F)cc2)N(CCN2CCOCC2)C1=O)Nc1ccc(F)cc1F (stereo not drawn) | -4 | 10% | 1.6 | 2 | nt
CCn1cc(C(=O)NCc2ccco2)c(=O)c2cc(S(=O)(=O)N3CCC(C)CC3)ccc21 | -21 | -7% | -1.3 | -1 | -32
COc1ccc(CNC(=O)COC(=O)c2c[nH]c(=O)[nH]c2=O)cc1OC | -1 | -8% | -2.6 | -7 | -35
CCC1CCCCN1C(=O)CSc1nnc(-c2ccc(Cl)s2)o1 (stereo not drawn) | 1 | 5% | 1.6 | 79 | 13
Cc1cc(C)nc(N2CCC(C(=O)NCCc3ccc(F)cc3)CC2)n1 | 7 | nt | -0.2 | -5 | 3
CS(=O)(=O)N1CCC(C(=O)N2CCN(c3ccccc3)CC2)CC1 | 0 | 1% | -1.2 | -1 | nt
Cc1ccc2cc(CN(CC3CCCO3)S(=O)(=O)c3ccccc3)c3nnnn3c2c1 (stereo not drawn) | -5 | 1% | 5.7 | -9 | 8
Cc1cc(C)nc(NS(=O)(=O)c2ccc(N3Cc4ccccc4C3=O)cc2)n1 | 6 | -7% | -1.3 | -5 | -21
CC1CCN(CC(O)COc2ccc(F)cc2)CC1 (stereo not drawn) | 6 | -11% | 1.1 | 6 | nt | Arbovirus anti repeat=-1
COc1cccc2c1Oc1ncccc1N(C(=O)CCC(=O)NCc1ccc(F)cc1)C2 | nt | nt | 5.8 | -17 | nt
Cc1c(Cc2ccccc2)c(=O)oc2cc(OCC(=O)c3ccccc3)ccc12 | -16 | -12% | -2.1 | -1 | -40
C/C(=N\NC(=O)c1ccc(Cn2cc([N+](=O)[O-])cn2)o1)c1cccc(NC(=O)C(C)C)c1 | 1 | 2% | -0.3 | 6 | -41
CCn1cc(C(=O)N2CCOCC2)c(=O)c2cc(S(=O)(=O)N(C)C)ccc21 | 2 | 2% | 2.7 | 3 | nt
O=C(NC(CSSCC(NC(=O)c1ccccc1)C(=O)O)C(=O)O)c1ccccc1 (stereo not drawn) | 0 | -19% | -2.5 | -1 | nt
COc1ccccc1OCC(=O)NNC(=O)Nc1ccc(Cl)cc1 | -14 | 6% | -0.8 | -6 | nt
N=C(N)SCC1=CCS(=O)(=O)C1 | nt | 5% | -1.0 | 72 | nt
O=C(COC(=O)c1ccc(Cl)c(S(=O)(=O)N2CCCCC2)c1)NCC1CCCO1 (stereo not drawn) | 6 | -1% | 2.1 | -5 | nt
N/C(=N\S(=O)(=O)c1cc(C(F)(F)F)cc(C(F)(F)F)c1)c1ccc(Cl)cc1 | nt | 4% | -1.8 | 3 | nt
CC1=CC(=O)C=C(C)C1=NOc1ccccc1[N+](=O)[O-] | 14 | -8% | 9.2 | 48 | -24
COc1cc(OC)cc(C(=O)NCc2nc(-c3ccccc3)no2)c1 | 3 | 2% | 2.0 | 9 | -21
COc1ccc(-c2nnc(SCC(=O)Nc3cc(C)on3)o2)cc1 | 12 | 3.9µM* | -0.8 | 99 | nt

Sorted by SMILES length (ascending): part of the list above
SMILES | Arbovirus anti | Mtb growth | RecA splice inh | Mtb betalactam | YopH PTP inh | others
COc1cc(OC)cc(C(=O)NCc2nc(-c3ccccc3)no2)c1 | 3 | 2% | 2.0 | 9 | -21
Cc1c(Cc2ccccc2)c(=O)oc2cc(OCC(=O)c3ccccc3)ccc12 | -16 | -12% | -2.1 | -1 | -40
C/C(=N\NC(=O)c1ccc(Cn2cc([N+](=O)[O-])cn2)o1)c1cccc(NC(=O)C(C)C)c1 | 1 | 2% | -0.3 | 6 | -41

(more compounds)
SMILES | Arbovirus anti | Mtb growth | RecA splice inh | Mtb betalactam | YopH PTP inh | others
COc1ccccc1CNS(=O)(=O)c1c(C(=O)N2CCCC2)c(C)n(C)c1C | nt | nt | -0.8 | -4 | nt
O=C(Nc1cccnc1)c1cc(F)cc(F)c1 | -4 | 8% | 6.9 | 0 | -6
O=C(CSc1nc(-c2ccco2)cc(C(F)(F)F)n1)Nc1ccc2c(c1)CCC2 | -11 | 6% | 6.5 | 13 | -18
COc1cc(O)c(C(CCN2CCOCC2)c2cc(OC)c(OC)c(OC)c2)c(OC)c1 (stereo not drawn) | nt | -14% | -2.3 | -3 | nt
CN(C)S(=O)(=O)c1ccc(N)c([N+](=O)[O-])c1 | nt | -4% | 2.0 | 3 | nt
C/C=C/C(=O)OCC(=O)Nc1cc(OC)c([N+](=O)[O-])cc1C | 4 | 2% | -4.3 | -3 | nt
COc1cccc(-n2nc(-c3ccnn3-c3ccccc3)c(=O)n(C)c2=O)c1 | -4 | -4% | -4.2 | 19 | -9
Cc1ccc(CCN2C(=O)CCC2(C)C(=O)NCc2cccnc2)cc1 (stereo not drawn) | -2 | 1% | 2.6 | -4 | -24
Oc1ccc(NC(=S)N=Nc2c(O)[nH]c3ccc(Br)cc23)cc1 | -35 | 4% | 67* | nt | nt
COc1cc(C=O)cc(Cl)c1OC(=O)N1CCOCC1 | nt | nt | 0.3 | -4 | nt
Nc1nnc(SCC(=O)Nc2ccc(N3CCOCC3)c(Cl)c2)s1 | nt | nt | 0.9 | -3 | nt
COc1ccc(N(CC(=O)Nc2cc(OC)ccc2OC)S(C)(=O)=O)cc1 | -5 | -3% | 0.3 | 5 | -30
CC(C)CCNC(=O)C1CC(c2ccccc2[N+](=O)[O-])=NO1 (stereo not drawn) | nt | -5% | -0.8 | -2 | nt
O=C(COc1ccc(S(=O)(=O)N2CCCC2)cc1)Nc1ccc2c(c1)OCCO2 | 1 | 0% | 0.5 | 3 | nt
COc1ccc(S(=O)(=O)Nc2cccc(N(C)S(C)(=O)=O)c2)cc1C | 9 | -8% | 1.2 | -7 | 17
CC1=C(C/C(C)=C/c2ccccc2)/C(=C/CO)[C@@H]2OC(=O)O[C@]2(C)C12CC2 | nt | -9% | 11 | -8 | nt
CCOc1nc(Nc2ccc(OC)c(Cl)c2)nc(N2CCN(c3ccc(OC)cc3)CC2)n1 | -8 | 6% | 9.8 | 4 | -18
Cc1ccc(-n2c(C3CC3c3ccc(Cl)cc3)n[nH]c2=S)cc1 (stereo not drawn) | 9 | -4% | 2.4 | -6 | -8
COc1ccccc1NC(=S)NC(=O)c1ccc(-c2ccc(Cl)cc2)o1 | 15 | 79% | -0.2 | -6 | -13
COc1cc(CC(NC(C)=O)C(=O)NC2CCN(S(=O)(=O)c3ccc(NC(C)=O)cc3)CC2)cc(OC)c1 (stereo not drawn) | nt | nt | -2.5 | 0 | nt
O=C(N/N=C/c1cccc(F)c1)NC1CCCCC1 | -3 | 8% | -0.8 | 7 | -16
CCN(CC)Cc1c(C(=O)N/N=C/c2cccc(OCc3ccc(F)cc3)c2)nnn1-c1nonc1N | nt | nt | 1.0 | 9 | nt
OCCN1CCN(CC(O)C(F)(F)F)CC1 (stereo not drawn) | -1 | -2% | -0.8 | -3 | nt
COc1ccccc1NC(=O)CSc1nc2ccccc2cc1Cc1ccccc1 | -12 | 4% | -1.3 | 17 | -21
CCC1(c2ccccc2)NC(=O)N(CC(=O)Nc2cc(Cl)ccc2N2CCOCC2)C1=O (stereo not drawn) | nt | nt | 2.0 | -9 | nt
O=C(NC1CCCCC1)c1sc(N2CCOCC2)nc1-c1ccccc1 | -9 | -5% | 0.3 | -23 | -16

A portion of the library, so the mix of outcomes need not match the whole.
